Screens (PubChem)
Calb FLC: C. albicans growth modulation with fluconazole; C. albicans CaCi-2 (fluconazole-resistant clinical isolate) + fluconazole, Alamar Blue growth, 48 h; 0.57% of 300,000 active; growth inhibition, % (concentration not given with the values); AID 1979;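 active = most replicates above 75%; inconclusive = exactly half above 75%; inactive = most below 75%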;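 also: all wells also contain fluconazole at 8 µg/ml as a sub-toxic cotreatment; 0% = median of DMSO wells and 100% = median of geldanamycin control wells; wells of about 8 µL received 7.5 nL stock; the first replicate is given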
LANA-H2B inh: blocks KSHV LANA binding to histone H2A/H2B. Q9QR71. cell-free LANA-H2A/H2B peptide, fluorescence polarization. inhibition, % (no concentration beside the values). 0.6% of 320,000 active. AID 2629; in the data active = inhibition mostly above about 10%, no sharp cut-off; inactive = mostly below about 6.7%;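 also: stock transfer was 7.5 nL into about 10 µL; 0% = median of vehicle wells and 100% = median of positive control wells; one replicate is shown; the record names a cut of 25% in any replicate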
Target sequence (Q9QR71 whole entry, looked up): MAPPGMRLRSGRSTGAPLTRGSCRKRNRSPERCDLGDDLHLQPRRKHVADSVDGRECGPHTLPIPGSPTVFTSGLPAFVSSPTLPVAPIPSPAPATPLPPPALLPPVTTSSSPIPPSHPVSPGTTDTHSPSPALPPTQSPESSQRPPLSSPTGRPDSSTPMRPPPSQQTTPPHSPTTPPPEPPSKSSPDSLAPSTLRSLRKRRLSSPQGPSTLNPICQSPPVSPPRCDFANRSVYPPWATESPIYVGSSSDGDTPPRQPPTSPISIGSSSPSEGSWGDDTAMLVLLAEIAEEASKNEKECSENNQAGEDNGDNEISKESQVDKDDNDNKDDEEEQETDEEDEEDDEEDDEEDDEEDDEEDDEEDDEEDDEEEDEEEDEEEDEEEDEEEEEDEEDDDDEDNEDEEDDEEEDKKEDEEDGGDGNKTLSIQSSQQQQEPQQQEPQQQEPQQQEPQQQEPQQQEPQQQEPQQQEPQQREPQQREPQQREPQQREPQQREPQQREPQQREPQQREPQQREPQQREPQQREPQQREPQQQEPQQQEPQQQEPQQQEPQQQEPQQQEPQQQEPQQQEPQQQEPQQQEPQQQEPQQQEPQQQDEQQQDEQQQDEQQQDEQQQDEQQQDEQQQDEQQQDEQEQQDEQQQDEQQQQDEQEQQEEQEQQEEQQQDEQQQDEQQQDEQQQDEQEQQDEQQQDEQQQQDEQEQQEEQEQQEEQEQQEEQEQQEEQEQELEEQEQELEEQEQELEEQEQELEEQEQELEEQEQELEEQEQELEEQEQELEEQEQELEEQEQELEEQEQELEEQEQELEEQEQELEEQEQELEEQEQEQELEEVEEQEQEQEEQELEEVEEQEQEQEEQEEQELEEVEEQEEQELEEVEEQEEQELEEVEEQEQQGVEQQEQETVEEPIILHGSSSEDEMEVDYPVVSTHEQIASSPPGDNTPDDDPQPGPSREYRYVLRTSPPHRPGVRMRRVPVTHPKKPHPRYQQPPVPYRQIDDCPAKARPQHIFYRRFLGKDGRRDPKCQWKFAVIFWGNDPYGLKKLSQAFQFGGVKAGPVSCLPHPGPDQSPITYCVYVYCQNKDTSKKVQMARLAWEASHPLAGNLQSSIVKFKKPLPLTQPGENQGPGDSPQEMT
T cruzi repl: T. cruzi replication inhibition. T. cruzi beta-gal in NIH3T3, luminescence, 90 h. inhibition, % (no concentration beside the values). 1.4% of 300,000 active;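 active = mean inhibition across valid replicates above about 55%, limit read from the data; inconclusive = mean below that limit but half or more replicates reach it; inactive = mean below it, under half of replicates reach it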;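 also: signal also drops with host cell toxicity which is not excluded here; 0% = plate median of DMSO wells and 100% = zero luminescence signal; higher percent means less beta-gal luminescence so fewer parasites; stock transfer was 50 nL into about 50 µL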
AF4-AF9 inh: MLL-AF4/AF9 protein interaction inhibition | AlphaScreen, biotin-AF4 peptide binding to FLAG-AF9 | 0.47% of 350,000 active | P42568 | inhibition, % at 10 µM | AID 651704;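 active = every replicate reaching a set inhibition limit, whatever the replicate mean, cut at about 25% in these data; inconclusive = mean inhibition reaches that limit but some replicates miss it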;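 also: 0% = plate neutral control median and 100% = total signal loss; the record names both 10 and 1 µM as test concentration; the first replicate is given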
Vif A3G: inhibitors of Vif binding to APOBEC3G peptide, primary screen, biochemical, TR-FRET, GST-Vif 1-94, biotin-A3G peptide, dose response retest (AID 1117319); 0.57% of 260,000 active; one-dose inhibition, %; IC50 in µM for titrated hits; TR-FRET GST-Vif / biotin-A3G peptide binding; higher % means a stronger effect; test concentration not given here; strong numbers were not always called active;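 active = above the screen mean plus three standard deviations and confirmed in dose response; inconclusive = results disagree or hit not tested in dose response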;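 also: Vif residues 1-94 fused to GST binding biotinylated APOBEC3G peptide 110-148; 0% = full assay without inhibitor and 100% = GST in place of GST-Vif; retest series ran down from 100 µM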
RanGTP-Imp inh: disruptors of Ran-importin-beta complex formation – biochemical, FRET, CFP-Ran, YFP-importin-beta, homogeneous, primary screen | cell-free CFP-Ran/YFP-importin-beta FRET ratio | inhibition, % (no concentration beside the values) | 1.1% of 300,000 active | AID 2216;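 active = most replicates above 15%; inconclusive = exactly half above 15%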;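 also: 0% = DMSO wells and 100% = Ran loaded with GDP instead of GTP; wells of about 40 µL received 100 nL stock; the first replicate is given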
Beta cell apopt: beta cell apoptosis inhibition | 0.8% of 300,000 active | INS-1E cytokine-induced death, ATP luminescence, 48 h; percent of positive-control rescue, neutral wells zero | protection from apoptosis, % (test concentration not listed);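 active = all replicates at 75% or more, or half of them and the mean; inconclusive = half reach 75% but not the mean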;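 also: 0% = cytokine-treated negative control wells and 100% = positive control rescue; higher means more ATP so stronger rescue from cytokine killing; wells of about 40 µL received 100 nL stock; the first replicate is given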
A1 inh: inhibitors of the anti-apoptotic protein A1, read as caspase activation; MEF A1-2A-BIM cells, Caspase-Glo 3/7 luminescence, 3 h; percent of clofoctol response, vehicle zero; caspase activation, % (test concentration not listed); 0.066% of 330,000 active;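 active = over half of replicate activation scores above 10%, or exactly half above 10 with the replicate mean above 10; inconclusive = replicate mean below 10 yet half the replicates above 10; inactive = over half of replicates below 10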;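 also: wells of about 30 µL received 50 nL stock; many hits fall short of the cut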
Starred values were filed as active, the others as inactive; ? = inconclusive; . = not tested or not shown; & = joins results of further samples.

SMILES	Calb FLC	LANA-H2B inh	T cruzi repl	AF4-AF9 inh	Vif A3G	RanGTP-Imp inh	Beta cell apopt	A1 inh
Fc1ccc(-c2nn3c(C4COc5ccccc5O4)nnc3s2)cc1 (stereo not given)	0.0	0.3	26.6	.	-25.0%&0.9%	-0.7	-4.6	1.4
Cc1nn(-c2ccccc2)c2[nH]c(=O)cc(C(F)F)c12	.	8.0	.	2.8	9.5%	.	-6.7	-0.3
O=C(Cc1ccc(Br)cc1)NNC(=O)Nc1ccc(Cl)cc1	1.9	5.3	-3.8	-1.0	-1.0%	-0.3	0.7	-0.4
CC(=O)N(C)c1ccc(OCC(O)Cn2c(C)nc3ccccc32)cc1 (stereo not given)	16.0	2.9	7.6	-2.3	.	2.8	7.1	1.0
CC(C)CC(=O)c1c[nH]c(C(=O)NCc2ccc(F)cc2)c1	7.0	-2.9	3.1	-11.5	-0.3%	1.7	4.1	0.4
O=C(CSc1nc2c([nH]c3ccccc32)c(=O)n1-c1ccc(F)cc1)NCc1ccco1	-1.9	-9.1	-3.2	-0.1	-3.3%	2.6	6.5	0.4
COc1cc(C(C)=O)ccc1Oc1cnccn1	7.2	0.5	-10.0	-1.5	7.4%	-6.0	-4.7	0.5
Cn1cc(CNC(=O)C2CCC(=O)N(Cc3ccccc3F)C2)cn1 (stereo not given)	-3.5	2.3	-15.6	-0.7	.	2.7	-1.7	-0.8
Cc1ccc(OCCOCCN2CCCC2)c(Br)c1	-1.3	-1.3	56.7*	0.1	.	1.0	0.9	0.2
CN1CCN(c2cc(=O)n(-c3ccc(Cl)cc3)c(=O)[nH]2)CC1	-7.6	-1.6	-17.1	?	3.6%	31.4*	2.2	-0.3
Cc1cccc(NC(=O)c2ccc(S(=O)(=O)N3CCCCCC3)cc2)n1	-10.0	2.7	9.0	-0.7	-0.7%	5.7	.	-3.0
Cc1ccc(-c2cc(Cc3cccs3)c(=O)[nH]n2)cc1	-7.8	1.4	-5.8	1.4	-9.6%	2.3	-0.3	-0.5
CC(C)COc1cccc(-c2cc(C(=O)N/N=C/c3ccncc3)c3ccccc3n2)c1	-7.5	-1.0	.	3.7	.	.	19.3	-0.8
O=C(O)c1ccccc1C(=O)OCc1ccccc1	0.9	3.4	0.8	.	25.9%	3.5	-4.2	0.4
CC(=O)Nc1ccc(S(=O)(=O)Oc2cccc(N3C(=O)C4CCCCC4C3=O)c2)cc1 (stereo not given)	-5.5	5.4	-3.9	.	0.7%	-3.8	1.0	0.6
COc1ccc(N2C(=O)CC(Cc3ccccc3)C2=O)cc1 (stereo not given)	-5.9	0.7	6.7	.	1.5%	9.2	2.2	-0.2
O=C1c2ccccc2C(=O)N1CCCn1ccnc1	4.6	-0.4	0.2	-1.2	.	-2.1	-1.1	0.3
FC(F)Oc1ccc(NC(=S)Nc2ccc3cn[nH]c3c2)cc1	7.2	2.3	-1.2	?	23.8%	-0.9	-4.6	0.5
Cc1onc(-c2c(Cl)cccc2Cl)c1C(=O)N(C)Cc1ccccc1	7.4	-6.2	8.2	0.3	.	4.3	-4.1	2.7
Cc1cc(C)cc(-c2nnc(SCC(=O)NCc3cccs3)o2)c1	0.4	-10.5	9.1	.	80.2%	1.6	-1.8	0.5
Cn1c(CCNC(=O)c2cc(COc3ccc(F)c(F)c3)on2)nc2ccccc21	15.5	4.1	2.8	-1.1	.	0.1	2.4	-0.7
CCCCOc1ccc(NC(=O)CN2CCN(C(=O)OCC)CC2)cc1	6.6	-5.4	4.7	.	2.6%	0.5	2.1	-0.1
COc1cccc(NC(=O)COC(=O)/C=C/c2ccc(Cl)cc2Cl)c1	-5.3	0.9	1.7	1.6	.	4.4	-4.6	-0.4
CCCCCCCNC1=CC(=O)CC(c2ccccc2)C1 (stereo not given)	-32.0	-0.3	18.7	0.2	.	7.1	91.1*	0.2
CCn1nc(C)cc1C(=O)Sc1ccc(C)cc1	-3.1	4.7	5.2	-1.8	-6.7%	2.2	-18.1	0.0
Next section:
SMILES	Calb FLC	LANA-H2B inh	T cruzi repl	AF4-AF9 inh	Vif A3G	RanGTP-Imp inh	Beta cell apopt	A1 inh
CC1OC23CCCCC2C(C#N)(C(=N)O3)C1(C#N)C#N (stereo not given)	15.5	1.9	-2.9	.	32.5%	7.6	.	0.7
COc1ccc(N2CCN(C(=O)Cn3cnc4c(cnn4-c4ccccc4)c3=O)CC2)cc1	7.3	4.7	-5.6	-0.1	.	-1.3	-5.7	0.2
COc1cc(/C=N/NC(=O)c2nonc2C)ccc1O	-0.4	3.3	2.2	.	15.1%	6.2	-0.7	-8.5
O=S(=O)(c1ccccc1)N(Cc1ccccn1)Cc1ccccn1	11.4	-11.2	-13.5	-1.2	-5.6%	1.3	.	0.7
CCN1/C(=C/C(=S)Nc2ccccc2)Sc2ccccc21	-12.6	1.0	22.0	7.6	.	-3.1	.	-1.1
NC(N)=Nc1nc2cc([N+](=O)[O-])ccc2o1	-14.2	-3.6	-4.2	-0.8	.	-1.5	-8.9	-0.8
CN1C(=O)c2c(sc3c2CCCC3)NC1c1ccccc1O (stereo not given)	-1.2	0.0	6.2	.	23.8%	-1.0	5.8	-0.6
CSc1ccc(C2N=C(c3ccccc3)NO2)cc1 (stereo not given)	0.1	0.3	-2.7	.	.	-0.6	0.5	-5.6
COc1ccc(/C=N/n2c(-c3n[nH]c4c3CCC4)n[nH]c2=S)c(OC)c1OC	-5.5	-4.8	1.4	-0.7	0.6%	-1.5	-2.9	0.8
Cc1cc(Br)ccc1NC(=S)N1CCOCC1	10.7	1.7	.	-3.9	2.9%	3.7	-7.7	-0.1
Cc1cccc(C)c1NC(=O)C(=O)NCCCN1CCOCC1	-16.7	6.9	-2.5	-0.3	-0.1%	-6.3	-1.0	2.3
O=C(NCc1ccccn1)c1ccc(Cl)cc1Cl	8.6	-5.0	-16.0	.	8.4%	0.8	0.7	0.6
CN(C)S(=O)(=O)c1cc(NC(=O)CN2CCc3ccccc32)ccc1Cl	0.8	3.4	-0.6	-1.9	-12.6%	-4.5	4.4	1.5
COC(=O)c1ccc(C2/C(=C(/O)c3ccc4c(c3)CC(C)O4)C(=O)C(=O)N2Cc2ccncc2)cc1 (stereo not given)	0.4	2.9	-20.5	-5.8	.	3.6	.	-2.2
CC(=O)N1CCN(C(=O)CCc2c[nH]c3ccccc23)CC1	1.5	-1.5	-2.1	.	2.3%	-1.1	-3.7	1.3
CC(C)(C)OC(=O)N1CCOCCOCCN(C(=O)OC(C)(C)C)CCOCC1	-13.9	1.5	-1.4	.	-11.2%	-2.7	.	0.2
CCn1c(COc2ccccc2)nnc1SCC(=O)Nc1cc(OC)ccc1OC	1.7	1.6	6.3	.	5.5%	-4.0	-1.3	0.3
O=C(O)C(=O)Nc1ccc(NC(=O)C(c2ccccc2)c2ccccc2)cc1	-4.6	1.7	1.1	-5.9	-2.2%	2.1	-5.6	0.7
O=C(Nc1ccccc1Br)c1cc[n+]([O-])cc1	-0.6	-5.1	2.5	1.9	.	1.8	-1.7	0.0
O=C1C2CCCN2C(=S)N1Cc1ccccc1 (stereo not given)	-5.8	-2.5	8.5	-1.0	2.8%	-0.4	-1.8	0.7
COc1ccccc1CCNC(=O)c1cc(-c2ccccn2)nc2ccc(Br)cc12	-3.3	-3.9	2.7	.	.	0.5	15.0	0.0
O=C1N=C(N2CCN(c3ccccc3)CC2)S/C1=C/c1ccco1	-0.8	0.4	-5.7	4.5	.	-1.0	2.7	-0.2
Cn1c(SCC(=O)OCc2ccccc2)nnc1-c1ccco1	-4.8	-0.6	-6.4	.	-0.6%	1.4	-1.7	-0.2
CCCOc1ccc(Cc2nc(N)nc(N)n2)cc1	-23.3	2.9	6.1	.	14.7%	?	.	1.0
CCn1c(SCC(=O)Nc2ccc(OC)c(OC)c2)nnc1-c1c[nH]c2ccccc12	0.4	0.6	-8.4	0.6	-0.6%	-2.6	-0.2	0.0
Additional results follow.
SMILES	Calb FLC	LANA-H2B inh	T cruzi repl	AF4-AF9 inh	Vif A3G	RanGTP-Imp inh	Beta cell apopt	A1 inh
O=C(N/C(=C/c1ccccc1F)C(=O)N1CCCCC1)c1ccccc1	16.4	-6.2	-10.1	-1.3	.	6.0	3.8	0.1
CCCN(N=Nc1cccc([N+](=O)[O-])c1)c1cccc([N+](=O)[O-])c1	-11.6	-0.2	11.4	7.0	5.3%	2.1	10.8	-0.5
ONC=Nc1cccc2nonc12	-4.0	1.6	0.5	.	8.0%	-1.9	-0.9	-0.4
Cc1cccc(C(=O)NNC(=O)c2c(-c3ccccc3Cl)noc2C)c1O	?	0.9	10.6	-4.2	.	0.6	4.9	0.2
Nc1ccc(C(=O)Nc2cccc3ncccc23)cc1	-3.6	3.9	-15.6	2.9	.	4.8	-1.2	1.1
CCn1ccc(C(=O)N2CCN(c3ncccn3)CC2)n1	-3.3	0.7	-15.3	0.1	.	3.4	.	0.5
O=C(NCC(=O)N(Cc1ccco1)C(C(=O)NC1CCCCC1)c1cccnc1)c1cccs1 (stereo not given)	2.3	7.8	6.9	.	5.7%	-1.3	-3.6	-0.6
COCCCNC(=S)NNC(=O)Cn1nc(C)c(Br)c1C	30.8	-2.9	-15.2	-2.9	.	4.5	-3.8	0.6
CCN(C(=O)COC(=O)c1ccc2[nH]c3c(c2c1)CCCC3)C1CCS(=O)(=O)C1 (stereo not given)	-27.6	7.8	-2.6	3.7	-8.6%	0.8	-3.4	-0.2
Cc1ccc2c(C)c(C(=O)Nc3ccc(S(N)(=O)=O)cc3)oc2c1C	-1.2	-0.9	12.9	-2.4	18.7%	4.9	-3.5	-1.3
O=C(Nc1ccon1)C(Sc1ccccc1)c1ccccc1 (stereo not given)	-7.4	-1.3	4.3	.	0.5%	-1.1	-0.7	-0.1
C#CCOCCOCCOCCNc1nc(N2CCN(C(=O)C(Cc3ccc(O)cc3)n3cc(C(N)CC(C)C)nn3)CC2)nc(N2CCN(C(=O)C(Cc3ccc(O)cc3)n3cc(C(N)C(C)CC)nn3)CC2)n1 (stereo not given)	1.7	2.2	-16.0	?	.	2.2	-5.6	0.7
CSc1cccc(NC(=O)CCC(=O)O)c1	2.2	1.2	-2.0	-1.7	-1.2%	-4.0	-4.5	0.3
CCn1c(CNC(=O)c2ccc(OC)cc2)nnc1SC	-4.4	-3.7	-6.7	3.4	0.1%	-3.5	-5.7	0.0
COc1cc(CNc2ncc(-c3ccc(Cl)cc3)n2C)cc(OC)c1OC	5.8	-2.1	1.0	14.7	4.3%	-3.1	-6.4	0.3
COc1cc(/C=N/NC(=O)CN2CCCCC2)ccc1OCc1ccccc1	32.9	2.1	-3.6	.	.	?	.	-3.7
O=S(=O)([N-]c1nc2ccccc2nc1-n1cc[n+](Cc2ccccc2)c1)c1ccccc1	-0.9	2.0	3.2	-0.8	-0.4%	?	-1.4	1.0
CSc1ccc(/C=N/N2CCN(C)CC2)cc1	-7.8	-3.7	23.9	8.0	-4.8%	1.1	-4.3	-6.2
CCCN(CCC)CCCNC(=S)Nc1ccc2nc(N3CCN(C)CC3)cc(C)c2c1	-2.3	1.5	57.0*	16.8	3.1%	1.7	-2.4	0.3
